Source: PubChem BioAssay (Broad Institute)
FGF22 binding: shifts melting point of recombinant human FGF22; AID 651658; calls only at 9.99 µM; recombinant FGF22 thermal shift, SYPRO orange fluorescence; percent of sucrose octasulfate shift, DMSO zero; actives 1.5% (n = 340,000);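 active = melting point raised past a set limit in the mean and every replicate; three in four hits are not shown here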
Target sequence (Q9HCT0 whole entry, looked up): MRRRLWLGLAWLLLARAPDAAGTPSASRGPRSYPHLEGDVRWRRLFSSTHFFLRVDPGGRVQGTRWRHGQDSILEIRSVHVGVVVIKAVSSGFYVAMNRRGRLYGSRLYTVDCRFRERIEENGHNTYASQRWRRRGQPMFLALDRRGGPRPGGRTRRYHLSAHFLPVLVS
rRNA inh HTS: inhibitors of bacterial rRNA selective over humanized ribosomes. E. coli WT GFP vs humanized-ribosome RFP mutants, fluorescence, 24 h; active compounds read low; DMSO median 0, no signal -100. GFP signal change (wild-type ribosome), % (no concentration beside the values). actives 1.6% (n = 350,000). AID 720706;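 active = significant combined selectivity score with lowered wild-type GFP, culture density cut under 30%, mutant RFP and density less affected; inactive = any of these conditions unmet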; also: one replicate is shown; some compounds called inactive have numbers as strong as hits
rRNA inh HTS OD600: recorded beside rRNA inh HTS, whose call it bears; OD600 change, %; measured here: OD600 growth;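 optical density of the mix in the first replicate; 0 = DMSO median and -100 = no signal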
rRNA inh HTS RFP: also measured in rRNA inh HTS; calls as there; RFP signal change, %; measured here: RFP humanized mutant strains;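 first replicate; 0 = DMSO median and -100 = no signal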
* = called active by the depositor; i = inactive; & = joins results of further samples.

SMILES | FGF22 binding | rRNA inh HTS | rRNA inh HTS OD600 | rRNA inh HTS RFP
C[C@@H]1CN([C@H](C)CO)C(=O)c2cc(NS(=O)(=O)c3cn(C)cn3)ccc2O[C@@H](C)CCCCO[C@@H]1CN(C)S(=O)(=O)c1ccc(Cl)cc1 | i | -6 | -10 | 2.9
COCC(=O)Nc1ccc2c(c1)[C@H]1C[C@@H](CC(=O)N[C@@H](C)c3ccccc3)O[C@@H](CO)[C@H]1O2 | i | 0 | 3 | -1.7
O=C(N[C@@H]1CC[C@@H](CCNC(=O)C2CC2)O[C@H]1CO)c1ccccn1 | i | 0 | -7 | -1.3
N#C[C@@H]1[C@H](c2ccccc2C2=CCCCC2)[C@@H](CO)N1S(=O)(=O)c1cccc(F)c1 | i | -34 | -56 | 5.2
Cc1noc(C)c1NC(=O)N[C@H]1C=C[C@H](CC(=O)NCc2ccc(Cl)c(Cl)c2)O[C@H]1CO | i | -10 | -2 | -0.9
CCC(=O)N(C)C[C@H]1Oc2cc(C#CC3CCCCC3)ccc2S(=O)(=O)N([C@@H](C)CO)C[C@@H]1C | i | -4 | -21 | 5.5
CO[C@H]1CN(C)C(=O)c2ccc(NC(=O)Cc3ccccc3)cc2OC[C@H](C)N(CC2CC2)C[C@@H]1C | i | 0 | -4 | 0.2
C[C@H](CO)N1C[C@H](C)[C@@H](CN(C)S(=O)(=O)c2cn(C)cn2)OCCCC[C@H](C)Oc2ccc(NC(=O)Nc3ccc(C(F)(F)F)cc3)cc2C1=O | i | -6 | -6 | -0.1
C[C@@H]1CN([C@H](C)CO)C(=O)Cc2cc(NC(=O)Cc3ccccc3)ccc2O[C@@H]1CN(C)CC1CCCCC1 | i | 2 | 5 | 3.2
COc1cccc(C(=O)Nc2ccc3c(c2)C(=O)N(C)[C@H]2CC[C@@H](CC(=O)NCC(F)(F)F)O[C@H]2CO3)c1 | i | -6 | -6 | 2.2
N#Cc1cccc(-c2ccc(C3[C@H]4CNC[C@@H]3N4S(=O)(=O)c3ccc(-c4ccccc4)cc3)cc2)c1 (stereo partly drawn) | i | -5&-43 | 4&-49 | 0.7&-1.4
CN1c2ccc(Br)cc2[C@H]2[C@H](CCN2C(=O)C2CCOCC2)[C@@H]1CO | i | 6 | 16 | 1.6
COc1ccc(NC(=O)N(C)C[C@H]2Oc3cc(C#CCC(C)C)ccc3S(=O)(=O)N([C@@H](C)CO)C[C@@H]2C)cc1 | i | -2 | 0 | 7.0
Cc1ccc(S(=O)(=O)NCC[C@@H]2CC[C@H](NC(=O)NC(C)C)[C@H](CO)O2)cc1 | i | 6 | 11 | -1.1
COc1ccc(NC(=O)Nc2ccc3c(c2)C(=O)N([C@@H](C)CO)C[C@H](C)[C@H](CN(C)C(=O)Nc2ccc(OC)cc2)OCCCC[C@@H](C)O3)cc1 | i | 3 | 7 | -2.0
C[C@@H]1CN([C@@H](C)CO)C(=O)Cc2cc(NC(=O)NC3CCCCC3)ccc2O[C@H]1CN(C)Cc1ccc(C(F)(F)F)cc1 | i | 1 | -8 | 5.6
Cc1noc(C)c1NC(=O)N(C)C[C@H]1Oc2ccc(NC(=O)c3ccncc3)cc2C(=O)N([C@@H](C)CO)C[C@@H]1C | i | 0 | -1 | -1.1
C[C@@H]1CN([C@H](C)CO)C(=O)Cc2cc(NC(=O)Nc3ccccc3)ccc2O[C@@H]1CN(C)C(=O)Nc1cccc2ccccc12 | i | 4 | -8 | 0.9
CO[C@@H]1CC[C@H]2CCOc3ccc(C#N)cc3C(=O)N(C)C[C@@H](C)C(=O)N(C)C[C@H]1O2 | i | 5 | 11 | -5.2
COc1ccc(S(=O)(=O)N2CCCCN3[C@H](C2)[C@H](c2ccc(C4=CCCC4)cc2)[C@@H]3CO)cc1 | i | 0 | -10 | 0.0
O=C(C[C@H]1CC[C@@H]2[C@H](COC[C@@H](O)CN2Cc2cccc(-c3ccncc3)c2)O1)N1CCCCC1 | i | -4 | -1 | 0.5
O=C(c1ccc(F)cc1)N1CCCCN2[C@H](CO)[C@H](c3ccc(-c4ccccc4)cc3)[C@H]2C1 | i | -58 | -73 | -12
COc1ccc(NC(=O)N(C)C[C@H]2OCc3ccccc3-c3c(n(C)c4ccccc34)C(=O)N([C@@H](C)CO)C[C@@H]2C)cc1 | i | -3 | 0 | 3.1
COc1ccc(NC(=O)Nc2ccc3c(c2)C(=O)N([C@@H](C)CO)C[C@H](C)[C@@H](CN(C)Cc2ccc(C(F)(F)F)cc2)O3)cc1 | i | 4 | -5 | 1.0
C[C@H]1CN([C@@H](C)CO)C(=O)Cc2cc(NS(=O)(=O)c3ccc(Cl)cc3)ccc2O[C@H]1CN(C)S(=O)(=O)c1cccs1 | i | -1 | -12 | 1.2
Going on with the list.
SMILES | FGF22 binding | rRNA inh HTS | rRNA inh HTS OD600 | rRNA inh HTS RFP
CC(C)NC(=O)N1[C@H](CO)[C@@H]2c3ccccc3NC[C@@H]21 | i | 7 | 6 | 1.4
Cc1noc(C)c1NC(=O)Nc1cccc2c1O[C@@H](CN(C)C(=O)NC(C)C)[C@H](C)CN([C@@H](C)CO)C2=O | i | 5 | 1 | -0.3
Cc1ccc(-c2ccc([C@H]3[C@H]4CN(C(=O)NC(C)C)CC(=O)N4[C@H]3CO)cc2)cc1 | i | -2 | 8 | -1.8
CC(C)NC(=O)N(C)C[C@H]1OCc2ccccc2-c2ccccc2C(=O)N([C@H](C)CO)C[C@H]1C | i | 2 | 5 | -0.5
Cc1cccc(NC(=O)CNC(=O)[C@@H](Cc2ccccc2)NC(=O)[C@H]2O[C@@H](n3ccc(=O)[nH]c3=O)[C@H](O)[C@@H]2O)c1C | i | 9 | 23 | 2.7
COc1ccc2c3c(n(C)c2c1)[C@H](CO)N(C(=O)c1ccc(F)cc1)CC31CCN(CC2CCOCC2)CC1 | i | 0 | 1 | -3.3
C[C@H]1CN([C@@H](C)CO)C(=O)c2cc(C3=CCCC3)cnc2O[C@@H]1CN(C)Cc1ccccn1 | i | 1 | -1 | -0.7
C[C@H]1CN([C@@H](C)CO)S(=O)(=O)c2ccc(-c3ccc(C(=O)N(C)C)cc3)cc2O[C@@H]1CN(C)C(=O)C1CCC1 | i | -6 | 6 | -2.4
COc1ccc2c3c([nH]c2c1)[C@@H](CO)N(C(=O)CC1CC1)CC31CCN(Cc2cccnc2)CC1 | i | 2 | 4 | 3.5
CO[C@H]1CN(C)C(=O)c2ccc(NC(=O)C3CCC3)cc2OC[C@@H](C)N(Cc2ccccn2)C[C@H]1C | i | -4 | -2 | 2.0
C[C@@H]1CN([C@@H](C)CO)C(=O)Cc2cc(NC(=O)CCCN(C)C)ccc2O[C@H]1CN(C)C | i | 0 | 6 | -1.7
C[C@H](CO)N1C[C@H](C)[C@H](CN(C)Cc2ccc(C(F)(F)F)cc2)Oc2ccc(NC(=O)Cc3cn(C)c4ccccc34)cc2C1=O | i | -1 | -8 | -0.9
C[C@@H]1CN([C@@H](C)CO)C(=O)c2cc(C3=CCCCC3)cnc2O[C@H]1CN(C)C(=O)c1ccncc1 | i | 3 | 10 | -0.6
COc1cccc(CNC(=O)C[C@@H]2C=C[C@@H](NC(C)=O)[C@H](CO)O2)c1 | i | -1 | 1 | 0.0
CCCC(=O)Nc1ccc2c(c1)C(=O)N(C)C[C@H](OC)[C@H](C)CN(Cc1ccccc1)[C@@H](C)CO2 | i | -1 | -2 | 3.0
C[C@@H]1CN([C@H](C)CO)C(=O)Cc2cc(NC(=O)Cc3cn(C)c4ccccc34)ccc2O[C@H]1CN(C)CC1CC1 | i | 2 | -1 | -0.1
O=C(c1ccc(F)cc1)N1C[C@@H]2[C@H](c3ccccc31)[C@H](CO)N2Cc1ccc2c(c1)OCO2 | i | -5 | -24 | 0.0
Cc1ccccc1-c1cnc2c(c1)C(=O)N([C@H](C)CO)C[C@@H](C)[C@H](CN(C)Cc1ccccc1F)O2 | i | -6 | -15 | 6.5
COC(=O)C1=C(C)N(Cc2ccccc2C(F)(F)F)C(=NCc2ccc(C(F)(F)F)cc2)NC1c1ccc(F)cc1 (stereo not drawn) | i | -4 | 2 | 12
CC(C)NC(=O)Nc1ccc2c(c1)CC(=O)N([C@@H](C)CO)C[C@@H](C)[C@@H](CN(C)Cc1ccc3c(c1)OCO3)O2 | i | 6 | 9 | 0.5
CC(=O)N(C)C[C@H]1Oc2cc(C#Cc3cccnc3)ccc2S(=O)(=O)N([C@H](C)CO)C[C@H]1C | i | -3 | 0 | -2.4
COC(=O)[C@]12C[C@H](CC(=O)NCc3ccc(C)o3)C(=O)N(Cc3ccccc3)C1=C[C@H](C1CCCC1)O[C@@H]2C | i | 4 | 9 | 5.5
COc1ccc(S(=O)(=O)Nc2ccc3c(c2)C(=O)N([C@@H](C)CO)C[C@@H](C)[C@@H](CN(C)Cc2ccc(C(=O)O)cc2)OCCCC[C@@H](C)O3)cc1 | i | -2 | -2 | -1.9
C[C@@H]1CN([C@@H](C)CO)S(=O)(=O)c2ccc(Br)cc2O[C@H]1CN(C)C(=O)c1cnccn1 | i | 4 | 5 | -3.8
Cc1ccc(S(=O)(=O)N(C)C[C@H]2OCCCC[C@H](C)Oc3ccc(NS(=O)(=O)c4c(C)noc4C)cc3C(=O)N([C@@H](C)CO)C[C@@H]2C)cc1 | i | -2 | 0 | 4.0

Next section; it opens with the six that closed the last part.
SMILES | FGF22 binding | rRNA inh HTS | rRNA inh HTS OD600 | rRNA inh HTS RFP
CC(C)NC(=O)Nc1ccc2c(c1)CC(=O)N([C@@H](C)CO)C[C@@H](C)[C@@H](CN(C)Cc1ccc3c(c1)OCO3)O2 | i | 6 | 9 | 0.5
CC(=O)N(C)C[C@H]1Oc2cc(C#Cc3cccnc3)ccc2S(=O)(=O)N([C@H](C)CO)C[C@H]1C | i | -3 | 0 | -2.4
COC(=O)[C@]12C[C@H](CC(=O)NCc3ccc(C)o3)C(=O)N(Cc3ccccc3)C1=C[C@H](C1CCCC1)O[C@@H]2C | i | 4 | 9 | 5.5
COc1ccc(S(=O)(=O)Nc2ccc3c(c2)C(=O)N([C@@H](C)CO)C[C@@H](C)[C@@H](CN(C)Cc2ccc(C(=O)O)cc2)OCCCC[C@@H](C)O3)cc1 | i | -2 | -2 | -1.9
C[C@@H]1CN([C@@H](C)CO)S(=O)(=O)c2ccc(Br)cc2O[C@H]1CN(C)C(=O)c1cnccn1 | i | 4 | 5 | -3.8
Cc1ccc(S(=O)(=O)N(C)C[C@H]2OCCCC[C@H](C)Oc3ccc(NS(=O)(=O)c4c(C)noc4C)cc3C(=O)N([C@@H](C)CO)C[C@@H]2C)cc1 | i | -2 | 0 | 4.0
COc1ccc(NC(=O)Nc2ccc3c(c2)CC(=O)N([C@@H](C)CO)C[C@@H](C)[C@H](CN(C)C(=O)Nc2ccc(C(F)(F)F)cc2)O3)cc1 | i | -4 | -8 | 2.9
C[C@H]1CN([C@@H](C)CO)C(=O)Cc2cc(NC(=O)Cc3ccccc3)ccc2O[C@@H]1CN(C)Cc1ccccc1 | i | -3 | -5 | 7.5
CO[C@H]1CN(C)C(=O)c2ccc(NC(=O)Nc3ccc(C(F)(F)F)cc3)cc2OC[C@@H](C)NC[C@@H]1C | i | -32 | -39 | 22
CC(=O)N(C)C[C@@H]1Oc2cc(C3=CCCC3)ccc2S(=O)(=O)N([C@H](C)CO)C[C@@H]1C | i | -4 | -6 | 0.7
C[C@H]1CN([C@@H](C)CO)S(=O)(=O)c2ccc(C#CC(C)(C)O)cc2O[C@@H]1CN(C)C(=O)CC1CC1 | i | 4 | 2 | -0.9
O=C(C[C@H]1C=C[C@H](NC(=O)c2ccccc2)[C@H](CO)O1)NCc1ccc(Oc2ccccc2)cc1 | i | -9 | 0 | 0.4
O=C(Cc1cccnc1)N1CC(=O)N2[C@H](CO)[C@@H](c3ccc(C4=CCCCC4)cc3)[C@H]2C1 | i | 4 | 3 | 2.9
C[C@@H]1CCCCO[C@H](CN(C)Cc2ccccc2)[C@H](C)CN([C@@H](C)CO)C(=O)c2cc(NC(=O)NC3CCCCC3)ccc2O1 | i | -2 | -22 | 14
C/C=C/c1cnc2c(c1)C(=O)N([C@H](C)CO)C[C@@H](C)[C@H](CN(C)S(=O)(=O)c1ccc(F)cc1)O2 | i | -3 | 7 | -0.9
C[C@H]1CN([C@@H](C)CO)C(=O)c2cc(NC(=O)Nc3ccc4c(c3)OCO4)ccc2O[C@@H]1CN(C)C(=O)Nc1cccc2ccccc12 | i | 1 | -1 | 0.0
CN(C)c1ccc2c(c1)[C@@H]1C[C@H](CC(=O)NCc3ccc(-c4ccccc4)cc3)O[C@@H](CO)[C@@H]1O2 | i | -8 | -15 | 3.6
CCC(=O)N1[C@H](CO)[C@H](c2ccccc2)[C@@H]1CN(CC)C(=O)c1ccc(F)cc1 | i | 4 | 6 | -4.3

Only part of the results is shown; the hit share may differ from the screen's.
